# Bioassay records (PubChem)
# GLA inh pH 4.5: blocks human alpha-galactosidase A at pH 4.5; AID 1467; activity change, negative = inhibition, % at 105 µM; P06280; 230,000 tested, under 10 active; purified enzyme, 4-MU-alpha-Gal fluorescence, pH 4.5; inconclusive = small, poorly fitted or top-dose-only inhibition, or a rising curve; inactive = flat fitted curve, though single readings scatter; no compound was filed as active;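 note: 0% = full activity with enzyme and -100% = basal without enzyme; dose as in the result columns while the protocol names 77 µM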
# Target sequence (P06280 whole entry, looked up): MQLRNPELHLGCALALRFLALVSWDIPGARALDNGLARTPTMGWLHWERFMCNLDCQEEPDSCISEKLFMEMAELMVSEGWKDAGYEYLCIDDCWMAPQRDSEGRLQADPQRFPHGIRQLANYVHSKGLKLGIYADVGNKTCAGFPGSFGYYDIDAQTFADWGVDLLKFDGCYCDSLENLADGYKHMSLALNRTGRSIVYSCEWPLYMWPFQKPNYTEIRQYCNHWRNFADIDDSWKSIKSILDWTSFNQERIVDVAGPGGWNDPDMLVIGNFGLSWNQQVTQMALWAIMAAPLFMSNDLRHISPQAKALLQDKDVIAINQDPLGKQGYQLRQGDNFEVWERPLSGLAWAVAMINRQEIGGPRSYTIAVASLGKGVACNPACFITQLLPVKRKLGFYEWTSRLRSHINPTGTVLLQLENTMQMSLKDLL
# Rango complex inh: inhibitors of Rango-importin beta complex formation. AID 540263. Potency, µM (doses to about 92.2 µM), inactives show at the top dose inhibition of complex formation. 340,000 tested, 0.031% active. Rango CFP/YFP FRET sensor + importin beta, 45 min; active = rising FRET ratio curve, often small or poorly fitted; inconclusive = mostly compound fluorescence or quenching in the first reads; inactive = flat curves in all reads;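 note: potency is the fitted concentration of half-maximal effect; 0% = DMSO wells and 100% = buffer wells lacking importin beta; nearly all actives have a fitted effect of over 15% in size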
#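 FRET biosensor (snurportin 1 IBB flanked by EYFP and cerulean), 50 nM, with compound 5 min, then 0.125 microM importin beta in PBS, 1 mM DTT, 0.02% Tween-20, 0.1% BSA. CFP/YFP ratio read after 45 min at room temperature; pre-read flags interference.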
# miR-21 reporter: miR-21 reporter, rising signal; HeLa miR-21 FLuc reporter, luciferase, 48 h; Potency, µM (series often up to 38.3 µM), without a hit: at the top dose reporter change, positive = more light; 340,000 tested, under 10 active; AID 2288; active = well fitted rising curve with a large enough effect; inconclusive = small, poorly fitted or top-dose-only effect; inactive = no such curve, though single readings can be large or run the other way;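 note: % of control where 0% means no effect; miR-21 action dims this reporter so a rising signal means less miR-21 action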
#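 Luminescence from a firefly luciferase reporter carrying a miR-21 binding site downstream, stably expressed under a CMV promoter in HeLa cells that make miR-21 endogenously, reports miRNA modulation after 48 h compound exposure up to approximately 40uM final.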
# Rango dissoc inh: prevents RanGTP from dissociating the Rango-importin beta complex. 340,000 tested, 0.071% active. O95149+P62826. Biochemical FRET Rango-importin beta, RanGTP-induced dissociation. Potency, µM (series often up to 46.1 µM), for the others: at the highest dose activity change, negative = inhibition. AID 540253; active means falling FRET ratio curve, often poorly fitted, with flat reads before Ran was added; inconclusive means other falling curves, or compound fluorescence or quenching; inactive means flat or rising ratio curve;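 note: potency is the fitted concentration of half-maximal effect; % of control where 0% means no effect; nearly all actives have a fitted effect of over 45% in size; -100% = wells without RanGTP and RCC1; the record marks most hits as doubtful in a second field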
#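 Two FRET readings bracket the reaction: one 5 min after compound meets Rango–importin beta, another 45 min after RanGTP-RCC1 (0.6 uM Ran, 0.2 uM RCC1, 2 mM GTP) is added. Only the second defines inhibition.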
# * = called active by the depositor; ? = inconclusive; . = not tested or not shown; [ ] = another dose, or the depositor's remark. Not all compounds are listed (hit frequency here may not be typical).
SMILES,GLA inh pH 4.5,Rango complex inh,miR-21 reporter,Rango dissoc inh
C[N+]1=C2CCCCCN2C(O)(c2ccccc2)C1 (configuration not stated),1,-1.3%,4%,17%
COc1ccc(C2CC(C(F)(F)F)n3nc(C(N)=O)c(Cl)c3N2)cc1OC (configuration not stated),6,5.7%,-8%,5%
CC(C)(C)c1ccc(C(=O)CC(Sc2ccc(Cl)cc2)C(=O)O)cc1 (configuration not stated),-7,-2.3%,21%,1%
O=C(COC(=O)[C@@H]1CCCN1S(=O)(=O)c1ccc(Cl)cc1)NC12CC3CC(CC(C3)C1)C2,-12,6.5%,-4%,1%
Cc1sc2nc(CN3CCCC3)nc(N3CCN(S(=O)(=O)c4cccc(F)c4)CC3)c2c1C,.,-2.2%,.,-1%
C[C@H](CO)N1C[C@H](C)[C@@H](CN(C)S(=O)(=O)c2ccccc2)Oc2c(NC(=O)Cc3ccccc3)cccc2C1=O,.,2.1%,.,-5%
Cc1noc(C)c1-c1nc(CS(=O)(=O)c2ccc(Cl)cc2)no1,-11,-2.7%,-2%,7%
Cc1ccc(C2(C)NC(=O)N(CC(=O)Nc3cccnc3Cl)C2=O)cc1 (configuration not stated),-19,0.4%,-2%,6%
CN(C)c1ccc(/C=N/NC(=O)c2ccc(Cl)cc2)cc1,6,?,-8%,?
Cc1cc(C)nc(N/C(=N/S(=O)(=O)Cc2ccccc2)Nc2ccccc2)n1,-1,1.0%,-1%,9%
CCOC(=O)C(C(=O)Nc1cccc(C)n1)C1CCCCC1 (configuration not stated),-3,7.4%,-4%,7%
CC(C)CC(NC(=O)C(Cc1ccc(OCc2ccccc2)cc1)NC(=O)OC(C)(C)C)C(N)=O (configuration not stated),11,0.1%,-1%,-8%
Cc1c(F)cccc1NS(=O)(=O)c1ccccc1C#N,5,3.0%,-2%,1%
CC1(C)CC(=O)C=C(Nc2ccccn2)C1,-8,3.6%,4%,4%
Cc1ccc(Cn2nnc3c(=O)n(CC(=O)c4ccccc4)cnc32)cc1,8,2.1%,-3%,5%

# In a second layout: entries from further up.
> C[C@H](CO)N1C[C@H](C)[C@@H](CN(C)S(=O)(=O)c2ccccc2)Oc2c(NC(=O)Cc3ccccc3)cccc2C1=O
  GLA inh pH 4.5: . | Rango complex inh: 2.1% | miR-21 reporter: . | Rango dissoc inh: -5%

> Cc1noc(C)c1-c1nc(CS(=O)(=O)c2ccc(Cl)cc2)no1
  GLA inh pH 4.5: -11 | Rango complex inh: -2.7% | miR-21 reporter: -2% | Rango dissoc inh: 7%

> Cc1ccc(C2(C)NC(=O)N(CC(=O)Nc3cccnc3Cl)C2=O)cc1 (configuration not stated)
  GLA inh pH 4.5: -19 | Rango complex inh: 0.4% | miR-21 reporter: -2% | Rango dissoc inh: 6%

> CN(C)c1ccc(/C=N/NC(=O)c2ccc(Cl)cc2)cc1
  GLA inh pH 4.5: 6 | Rango complex inh: ? | miR-21 reporter: -8% | Rango dissoc inh: ?

# More entries follow.
SMILES,GLA inh pH 4.5,Rango complex inh,miR-21 reporter,Rango dissoc inh
COC(=O)C(Cc1ccc(OC(=O)c2ccccc2C)cc1)N1Cc2ccccc2C1=O (configuration not stated),-10,0.5%,-22%,4%
O=C1[C@H]2[C@@H](c3ccc(F)cc3)N3C(=O)N(c4ccccc4)C(=O)[C@@]3(Cc3ccccc3)[C@H]2C(=O)N1C1CCCCC1,.,6.6%,.,4%
COc1ccc(N2C3=[N+](CC2(C)O)c2ccccc2CC3)cc1 (configuration not stated),3,?,-18%,-6%
CCC(NC(=O)CCC(=O)N1CCN(S(=O)(=O)c2ccc(C)cc2)CC1)c1ccc(C)cc1 (configuration not stated),.,-3.0%,.,1%
c1ccc(CSc2nnc(Cc3ccccc3)o2)cc1,7,-3.4%,-55%,-7%
O=C(Nc1ccccc1)c1cccc(S(=O)(=O)Nc2ccccn2)c1,11,0.0%,2%,-12%
Cc1nc2c(C(=O)Nc3ccc(N4CCCC(O)C4)cc3)snc2c(=O)[nH]1 (configuration not stated),1,-1.5%,-18%,1%
COc1cc(OC)cc(-c2nc3ccccc3c(=O)n2NC(=O)c2cccnc2Cl)c1,3,-0.7%,-6%,19%
O=C(CSc1ccccc1F)NC(=O)c1ccc(Cl)cc1,.,-2.0%,.,11%
C=C(C)C1CC=C(C)/C(=N/NC(=O)CCCNc2cccc(C)c2)C1 (configuration not stated),4,-1.8%,-1%,5%
COc1cccc(CC(=O)N2CCC(CCC(=O)Nc3cccc(OC)c3)CC2)c1,.,0.0%,-5%,34%
Cc1cc(CN(C)C(=O)CC2C(=O)NCCN2Cc2c(F)cccc2Cl)n[nH]1 (configuration not stated),2,-2.5%,-1%,2%
O=C(CCC1CCCC1)N1CCN(C(=O)COc2ccccc2)CC1,5,-3.4%,2%,-15%
CCCCn1c(N)c(N(CC)C(=O)C2CCN(C(=O)c3ccccc3C)CC2)c(=O)[nH]c1=O,.,-0.9%,.,18%
NC(=O)c1ccc(NC(=O)COC(=O)CC(NC(=O)c2ccccc2Cl)c2ccccc2)cc1 (configuration not stated),-3,-0.1%,1%,24%

# Record cards, as listed above. Values in the order: GLA inh pH 4.5 | Rango complex inh | miR-21 reporter | Rango dissoc inh
# NC(=O)c1ccc(NC(=O)COC(=O)CC(NC(=O)c2ccccc2Cl)c2ccccc2)cc1 (configuration not stated) reads -3 | -0.1% | 1% | 24%
# COc1ccc(N2C3=[N+](CC2(C)O)c2ccccc2CC3)cc1 (configuration not stated) reads 3 | ? | -18% | -6%
# CN(C)c1ccc(/C=N/NC(=O)c2ccc(Cl)cc2)cc1 reads 6 | ? | -8% | ?

# Next section.
SMILES,GLA inh pH 4.5,Rango complex inh,miR-21 reporter,Rango dissoc inh
O=C(CSc1nc2ccccc2n1Cc1ccccc1Cl)N/N=C/c1ccccc1C(=O)O,2,0.8%,-16%,-12%
Cc1c[n+]([O-])cc(C)c1[N+](=O)[O-],.,-0.2%,.,-8%
COC(=O)c1cc(NC(=O)COC(=O)C2CCC2)cc(C(=O)OC)c1,.,1.1%,.,32%
C=CC[C@@H](Cc1ccc(F)cc1)C(=O)OC[C@@H]1CCCN1C(=O)[C@H](CC=C)CC(=O)NCCO,.,0.3%,.,-2%
CN(C)c1ccc(CNc2ncc(Br)cc2Br)cc1,-1,-1.2%,-42%,-6%
N#Cc1ccc(OCC(=O)OCC(=O)c2ccccc2)cc1,.,0.5%,.,43%
COc1ccc(CCN2C(=O)CC(N3CCOCC3)C2=O)cc1OC (configuration not stated),-5,1.3%,0%,2%
COc1ccc(-c2ccc(C#N)c(SCC(=O)NC3CC3)n2)cc1OC,24,-0.3%,-14%,6%
NS(=O)(=O)c1ccc(CNC(=O)CNC(=O)Cc2ccccc2)cc1,.,5.6%,-1%,-10%
CCOC(=O)C(=O)N1CCN(c2ccccc2OC)CC1,.,-5.0%,6%,-2%
Cc1cccc(/C=N/NC(=O)c2ccccc2OCc2cccc(Br)c2)n1,.,-0.8%,6%,-5%
CCN1CCn2c3c(c4cccc(C)c42)CCCC31 (configuration not stated),.,5.5%,1%,0%
Cc1ccc(C(=O)N2CCC(C(=O)c3ccc(Cl)cc3)CC2)cc1,.,-1.7%,14%,7%
COc1ccc(OCC(=O)N/N=C(\C)c2ccc(-n3ccnc3)cc2)cc1,6,0.6%,-21%,0%
CC[C@]12C(=O)N(C)C[C@H]([C@@H]3C(=O)N(Cc4ccccc4)C(=O)[C@@H]31)N2C(=O)c1ccc(C(F)(F)F)cc1,.,-1.1%,.,-19%
NC(=O)SCC(=O)Nc1ccc(Cl)cc1,-13,-0.7%,2%,0%
Cc1cc(S(=O)(=O)NCCc2ccncc2)cc(C)c1F,.,-1.0%,.,-19%
c1ccc(-c2ccc3ccccc3n2)cc1,.,-1.3%,.,2%
COc1ccccc1CN(C)C(=O)c1cccc(S(=O)(=O)N2CCCC2)c1,.,-1.1%,.,29%
COc1ccc(C)cc1S(=O)(=O)Nc1cc2c3c(c1)CC(=O)N3CCC2,.,5.1%,.,9%
Cc1nc2sc3c(c2c(=O)[nH]1)CCCCC3,3,-0.3%,-24%,2%
COC(=O)CSc1nc(N)c(C#N)c(C(C)C)c1C#N,-1,-4.5%,-4%,2%
COc1ccc(C)cc1S(=O)(=O)N1c2ccccc2CC1C (configuration not stated),-2,-3.3%,0%,0%
COc1cccc(/C=C(\C#N)c2nc3ccc(C)cc3[nH]2)c1OCC(=O)O,.,?,-15%,16µM*
Cc1c(C(=O)O)sc(S(=O)(=O)N2CCN(C(=O)Cc3ccccc3)CC2)c1C(=O)O,.,?,.,0%
Oc1c(Br)cc(Br)cc1C=Nc1ccc2c(c1)OCCO2,-4[21.1 µM],?,-13%,?
CC1(C)Cc2ccccc2-c2nnc(SCC(=O)Nc3nc4ccccc4s3)n21,-5,5.2%,-5%,-11%
COc1ccc(CCNC(=O)CSc2nnc(-c3ccc(F)cc3)o2)cc1OC,-1,-2.8%,2%,18%
C=CCOCCn1[nH]c2ccccc2c1=O,.,1.5%,.,-16%
CCOC(=O)c1cc(NC(=O)Cc2ccc(S(=O)(=O)N3CCOCC3)s2)cc(C(=O)OCC)c1,.,1.4%,.,14%
Cc1ccc(NC(=O)c2cnn(-c3ccccc3)c2C)c(C)c1,.,-0.9%,-38%,-4%
CCC(=O)N1CCCc2cc(S(=O)(=O)N3CCN(C4CCCCC4)CC3)ccc21,4,-5.2%,1%,1%
O=C(NN=C1CCCC1)c1n[nH]c2c1CCC2,4,0.0%,2%,-10%
Cc1cccc(NC(=O)N2CCC(NC(=O)c3ccccc3C)CC2)c1,0,0.1%,-1%,3%
CCSc1nnc(NC(=O)Cc2cc(OC)c(OC)c(OC)c2)s1,-8,4.9%,1%,35%
CN(C)S(=O)(=O)c1cccc(C(=O)OCC(=O)Nc2sccc2C(N)=O)c1,6,-3.7%,12%,-10%
Cc1ccc(NC(=O)c2c(C(F)(F)F)nn(C)c2SCc2cccc(C(F)(F)F)c2)cc1C,-7,7.2%,5%,0%
COC(=O)c1ccc2ccn(CC(=O)NC3CCCCC3)c2c1,5,-1.0%,3%,-3%
COc1cccc(CN(C)C(=O)c2ccc(S(=O)(=O)N3CCCC3)cc2)c1OC,-4,1.3%,0%,1%
c1ccc(-c2ncnc3nc4n(c23)CCC4)cc1,8,0.1%,3%,?
Oc1cc(Cc2ccccc2)cnc1CN1CCCCC1,-2,1.0%,-21%,2%
C/C(=N\Nc1cccc2cccnc12)c1ccc[nH]1,-7,-1.2%,-48%,4%
Cc1nccn1-c1ccc(C(F)(F)F)cc1[N+](=O)[O-],-1,5.3%,-3%,31%
O=C(Nc1cc(F)c(Br)cc1F)c1ccc(Cl)cc1,1,6.0%,-61%,25%
